Assay outcomes: PubChem BioAssay, National Center for Advancing Translational Sciences (NCATS)
TRPML1 inh: human mucolipin-1 channel inhibition; Q9GZU1; TRPML1-inducible cells, Ca2+ dye fluorescence, FDSS; stronger effect = lower value; inhibition of EC80 agonist-evoked calcium signal; activity change, negative = inhibition, % (test concentration not listed); 390,000 compounds, 0.02% hits; in the data active means activity change below about -50%; inconclusive means about -30% to -50%; inactive means above about -30%;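 further: stimulus is agonist 54-4 at its EC80 concentration; on the % scale 0 is the no-effect control and ±100 the full control effect; compound concentration not given in the record; the text of the record puts the active cut at -80%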
Target sequence (Q9GZU1 whole entry, looked up): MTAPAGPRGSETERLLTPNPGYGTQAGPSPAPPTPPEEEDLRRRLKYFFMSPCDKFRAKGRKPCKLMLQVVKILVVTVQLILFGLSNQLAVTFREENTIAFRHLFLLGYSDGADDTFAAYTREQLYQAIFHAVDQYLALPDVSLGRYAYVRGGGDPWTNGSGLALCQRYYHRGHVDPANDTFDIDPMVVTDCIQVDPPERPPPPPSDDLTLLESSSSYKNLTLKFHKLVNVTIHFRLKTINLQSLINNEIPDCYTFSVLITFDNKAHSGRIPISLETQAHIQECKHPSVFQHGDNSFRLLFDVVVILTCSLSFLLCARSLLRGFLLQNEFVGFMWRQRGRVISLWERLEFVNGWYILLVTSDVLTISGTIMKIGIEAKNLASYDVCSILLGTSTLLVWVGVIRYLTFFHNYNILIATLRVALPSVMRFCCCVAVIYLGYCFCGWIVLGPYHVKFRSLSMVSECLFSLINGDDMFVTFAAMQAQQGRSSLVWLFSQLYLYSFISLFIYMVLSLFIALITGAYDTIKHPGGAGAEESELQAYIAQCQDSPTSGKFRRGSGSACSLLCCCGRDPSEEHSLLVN
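Calcium fluorescence in TRPML1-DL cells induced overnight with Tet: a 110 s read after compound pin addition, then a 110 s antagonist read after challenge with 54-4 at 4 uM final (EC80).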
Six1-Eya2 blk: inhibitors of human Six1/Eya2 interaction; Q15475+O00167; AlphaScreen GST-Six1/His-Eya2 binding, biochemical; stronger effect = lower value; control for the full effect not named in the record; activity change, % (concentration not given with the values); 360,000 compounds, 0.56% hits; AID 651725; in the data active = activity change below about -65%; inconclusive = about -30% to -65%; inactive = above about -30%; further: on the % scale 0 is the no-effect control and ±100 the full control effect
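GST-Six1 + His-Eya2 (5X stock: 250/500 nM); Tris pH 8.0, 300 mM NaCl, 0.05% BSA, 0.02% Tween 20; GSH donor/Ni acceptor beads; 1 h 37 °C dark; AlphaScreen readout.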
PINK1 expr mod: modulators of PINK1 expression | PINK1 immunofluorescence, high-content cytometry, 24 h | 410,000 compounds, 0.2% hits | Potency, µM (highest dose often 76.6 µM), inactives show at the highest dose activation (PINK1 increase), most hits filed as activators; active = well fitted activation curve with a large enough effect; inconclusive = small, poorly fitted or top-dose-only effect; inactive = flat fitted curve, though single readings scatter; cell line not stated here;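 further: potency means the concentration at half of the fitted maximal effect; % of control where 0% means no effect; nearly all actives have a fitted effect of over 65% in size; a mitochondrial uncoupler was the plate control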
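PINK1 protein, normally rapidly degraded, was detected by immunofluorescence after 24 hour compound treatment of a stable cell line. Titration data (5 concentrations) came from laser-scanning cytometry, with CCCP-treated wells as controls.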
CtBP-E1A blk: inhibitors of CtBP/E1A interaction | 340,000 compounds, 0.49% hits | AlphaScreen GST-E1A/His-CtBP binding, 1536-well; stronger effect = lower value; control for the full effect not named in the record | activity change, % (concentration not given with the values); in the data active means activity change below about -65%; inconclusive means about -30% to -65%; inactive means above about -30%; further: on the % scale 0 is the no-effect control and ±100 the full control effect
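Protein mix (5X: 125 nM each GST-E1A, His-CtBP) was incubated with pinned compound 2 h at 37 deg C in dark, in 50 mM Tris pH 8.0 buffer with 300 mM NaCl. Glutathione donor and nickel acceptor beads followed; AlphaScreen signal read after 1 h.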
D2 ag: activates the human D2 dopamine receptor; AID 624465; activation, % (concentration not given with the values); DiscoveRx PathHunter D2 beta-arrestin, luminescence, 90 min; 100% = 57 uM dopamine signal; 360,000 compounds, 0.084% hits; P14416; in the data active = activation above about 40%; inconclusive = about 15% to 40%; inactive = below about 15%; further: the text of the record calls up to 30% inactive
Target sequence (P14416 whole entry, looked up): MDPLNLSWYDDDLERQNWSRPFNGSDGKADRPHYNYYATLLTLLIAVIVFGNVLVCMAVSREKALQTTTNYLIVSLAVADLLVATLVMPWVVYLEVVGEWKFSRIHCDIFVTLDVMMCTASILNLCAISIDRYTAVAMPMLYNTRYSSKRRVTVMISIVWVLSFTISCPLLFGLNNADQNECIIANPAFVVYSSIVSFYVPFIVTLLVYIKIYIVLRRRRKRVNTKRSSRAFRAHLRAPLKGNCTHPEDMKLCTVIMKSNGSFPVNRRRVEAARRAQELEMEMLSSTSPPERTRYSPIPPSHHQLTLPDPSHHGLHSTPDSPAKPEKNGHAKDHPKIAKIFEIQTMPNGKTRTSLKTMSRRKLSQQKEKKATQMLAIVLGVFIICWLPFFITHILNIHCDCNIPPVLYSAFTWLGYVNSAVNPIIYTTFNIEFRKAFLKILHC
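Agonist mode: compounds alone added to overnight-plated D2 PathHunter cells for 90 min at 37 C, with 57 uM final dopamine (EC100) defining full response. Beta-arrestin recruitment detected by chemiluminescent reagent, read after 1 h at ambient temperature.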
TRPML1 ag: human mucolipin-1 channel agonism. 410,000 compounds, 0.12% hits. TRPML1-expressing cells, Ca2+ dye fluorescence, FDSS; host cell line not named in the record; reference of the full effect not given here. activation, % (no concentration beside the values). Q9GZU1; in the data active = activation above about 50%; inconclusive = about 30% to 50%; inactive = below about 30%; further: 0% is about no effect; the text of the record puts the active cut at 80%
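Agonist activity was taken from a 110 s kinetic Ca2+ dye read on the FDSS after pinning compounds onto TRPML1-DL cells. The cells were seeded at 1,500/well with Tet inducer, incubated about 16 h, then dye-loaded at room temperature.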
Active calls of the source: *; ? = inconclusive; . = not tested or not shown; & = joins results of further samples; [ ] = another dose, or the depositor's remark.

SMILES	TRPML1 inh	Six1-Eya2 blk	PINK1 expr mod	CtBP-E1A blk	D2 ag	TRPML1 ag
Cc1ccnc(NC(=O)Nc2ccc3c(c2)OCO3)c1	16	-1	4.6%	0	-5.6	-0.1
O=C(Nc1ccc(N2CCOCC2)nc1)c1ccccc1Cl	-3	1	-1.3%	-23	3.5	0.6
O=[N+]([O-])c1ccc2c(c1)nc1n2CCN(CC2CCCO2)C1 (configuration not stated)	22	2	-0.6%	5	1.4	1.1
COc1ccc(/C=C/C(=O)N2CCN(S(=O)(=O)c3ccccc3Br)CC2)cc1OC	-6	-2	2.1%	-2	0.8	0.3
CCCCn1c(SCC(=O)Nc2cccc(OC)c2)nc2ccsc2c1=O	17	.	1.6%	.	.	2.8
COc1ccc(Nc2cc(Cl)nc(N)n2)cc1OC	-10	-9	3.4%	-12	3.6	0.1
COc1cccc(CNC(=O)CNC(=O)N2CC(=O)Nc3ccccc32)c1	-5	14	1.5%	4	-3.7	-0.5
CS(=O)(=O)N(Cc1ccc(Cl)cc1)c1ccc(C(=O)NCC2CCCO2)cc1 (configuration not stated)	5	-1	-1.0%	-2	1.1	0.2
COc1ccccc1C(=O)NCC(=O)N1CCN(C/C=C/c2ccccc2)CC1	14	0	6.5%	-5	4.6	2.1
Cc1ccc(C(=O)OCC(=O)Nc2ccc(F)c(Cl)c2)o1	11	-5	0.9%	.	-3.6	0.4
CCCCN(CCCC)CCNC(=O)CNC(=O)c1cccs1	-11	4	-3.6%[38.3 µM]	7	2.2	0.1
CCn1c(N2CCN(S(=O)(=O)c3ccc(Cl)cc3)CC2)nc2ccccc21	-17	-13	3.0%	-5	6.4	0.8
CCCN(CC(=O)Nc1ccc(C(C)=O)cc1)CC(=O)Nc1ccccc1C	33	2	0.3%	5	-3.3	1.6
COc1cc(/C=N/Nc2cccc(C)c2)cc(Br)c1O	-2	3	2.0%	1	-5.8	-0.3
S=C(Nc1cc(Cl)cc(Cl)c1)N1CCN(c2ccccn2)CC1	3	-6	4.1%	0	-2.4	0.5
Cn1c(=O)cc(SCC(=O)NCCCN2CCOCC2)c2ccc(Cl)cc21	29	-12	-0.1%	-3	-1.3	-0.6
CCc1csc(CCNC(=O)C2CCC(=O)N(CCOC)C2)n1 (configuration not stated)	18	2	-0.1%	1	-1.6	0.1
CCOc1ccc(CC(=O)NC2CC(=O)N(c3cccc(F)c3)C2)cc1 (configuration not stated)	12	.	2.9%	.	.	-0.5
O=C(NCCN1CCOCC1)c1ccc2c(c1)N(Cc1ccc(F)cc1)C(=O)c1ccccc1S2(=O)=O	2	-9	1.4%	.	2.4	1.0
COc1ccc(NC(=O)CN2C(=O)NC3(CC(C)CC(C)(C)C3)C2=O)cc1S(=O)(=O)N1CCCCC1 (configuration not stated)	12	-5	1.5%	3	-0.4	-0.4
CC(=O)NC(Cc1ccccc1)C(=O)NC(Cc1ccccc1)C(=O)O (configuration not stated)	-18	-4	1.9%	.	-4.0	1.1
Fc1ccccc1C(c1nnnn1C1CCCC1)N1CCN(Cc2ccccc2)CC1 (configuration not stated)	-12	8	1.9%	0	-1.1	20
Cc1cc(C)cc(NC(=O)CSc2nc3nccnc3c(=O)n2CCc2c[nH]c3ccccc23)c1	2	.	0.6%	.	.	1.8
COc1cc(OC)c2ccc(=O)oc2c1C(CC(=O)N1CCCC1)c1ccc(N(C)C)cc1 (configuration not stated)	5&-5	-11	3.0%	-5	2.4	0.7&-0.6
O=C(NCC(=O)N1CCN(c2ccccc2)CC1)c1ccco1	25	-5	-1.0%	-1	0.7	0.1
Cc1ccc(N(CC(=O)NCc2ccc(F)cc2)S(=O)(=O)c2c(C)nn(C)c2C)cc1	52&-14	3	-1.5%&0.0%	3	1.8	-1.0&-0.1
c1ccc(Oc2nc(Oc3ccccc3)nc(N3CCOCC3)n2)cc1	-1	1	-2.6%	4	-1.1	-0.9
NC(=O)C1CC(=O)N(CCc2ccc(F)cc2)C1 (configuration not stated)	1	2	0.4%	.	-2.4	-0.5
CCOC(=O)c1cnc2c(Cl)c(Cl)ccc2c1NCCN1CCOCC1	-8&24	-9	3.6%&0.6%	2	7.4	-0.7&0.1
COc1ccccc1C(=O)COC(=O)CCCN=C1NS(=O)(=O)c2ccccc21	-4	-2	-1.5%	-5	-7.0	0.0
CC(C)CCNC(=O)c1cc([N+](=O)[O-])ccc1N1CCOCC1	1	17	0.1%	9	-4.7	-0.8
CN(C)c1cccc(C(=O)Nc2ccc(-c3nc4ccccc4s3)cc2)c1	14	.	1.4%	.	.	0.6
Cc1ccc(OCCC(=O)OCC(=O)NC2CCCCC2)cc1	12	-7	-0.2%	-1	-3.8	-1.2
COc1ccc(/C=C/C(=O)Nc2sc(Cc3ccccc3)c(C)c2C(N)=O)cc1	1	8	8.0%	11	0.8	0.3
CN(C)c1ccc(C(CNC(=O)c2ccccc2F)c2c[nH]c3ccccc23)cc1 (configuration not stated)	25	?	1.1%	?	-4.8	4.0
COc1ccccc1NC(=O)NC1(C(=O)N2CCC(C)CC2)CCCCC1	13	9	2.6%	0	-3.1	-1.2
Cc1occc1C(=O)NC1CCCCCCC1	16	-18	-2.9%	-2	-4.3	-0.6
CCC1CCCCN1C(=S)Nc1ccc(OC(F)F)cc1 (configuration not stated)	11	-4	-1.7%	1	-2.1	0.1
COc1cccc(/C(O)=C2/C(=O)C(=O)N(CCN3CCOCC3)C2c2cccs2)c1 (configuration not stated)	7	3	0.8%	0	-3.1	-0.7
COc1ccc(NC(=O)C(OC)c2ccccc2)cc1Cl (configuration not stated)	-12	2	0.5%	3	1.3	1.4
COc1cc(NC(=O)c2cc(OC)c(OC)c(OC)c2)c2ncccc2c1	-2	1	1.4%	6	0.9	-0.8
Cc1ccc(C(=O)Oc2csc(=S)n2C(=O)c2ccc(C)cc2)cc1	4	-6	.	8	-0.9	-0.3
C=CCC(=O)N(CC)CC1CCCN(CCc2cccc(F)c2)C1 (configuration not stated)	-1	4	0.5%	9	-2.1	-0.5
Cc1ccnc(NS(=O)(=O)c2ccc(NC(=O)c3cc(=O)c4ccc(C)c(C)c4o3)cc2)n1	-9	.	1.6%	.	.	0.6
CCOC(=O)C1CCCN(C(=O)Cn2nc(Cc3cccnc3)c3ccccc3c2=O)C1 (configuration not stated)	7	0	-0.8%	6	-7.2	-0.3
CC(C(=O)Nc1cccnc1)N1C(=O)C2C3C=CC(C3)C2C1=O (configuration not stated)	-11	0	-0.6%	6	-3.6	-0.5
CCN(C(=O)COC(=O)/C=C/c1ccc(S(=O)(=O)N2CCc3ccccc32)cc1)C1CCS(=O)(=O)C1 (configuration not stated)	2	-11	-2.4%	1	1.8	0.0
C(=C\c1ccccc1)/CSc1nnc(-c2cnccn2)n1Cc1ccco1	56	-3	2.9%	-2	-3.4	2.6
O=C(CNC(=O)c1ccccc1F)OCc1nc2ccc(Cl)cc2n1CCO	-5	-2	0.3%	-13	-2.4	0.4
Cc1nc(C)c(-c2ccc(SCc3ccc(Cl)cc3)nn2)s1	2	-1	3.5%	2	-0.7	-0.3

Entries of single compounds as entered above. Order of screens: TRPML1 inh	Six1-Eya2 blk	PINK1 expr mod	CtBP-E1A blk	D2 ag	TRPML1 ag
CC(C(=O)Nc1cccnc1)N1C(=O)C2C3C=CC(C3)C2C1=O (configuration not stated) as listed: -11	0	-0.6%	6	-3.6	-0.5
Cc1nc(C)c(-c2ccc(SCc3ccc(Cl)cc3)nn2)s1 as listed: 2	-1	3.5%	2	-0.7	-0.3
Cc1ccc(C(=O)Oc2csc(=S)n2C(=O)c2ccc(C)cc2)cc1 as listed: 4	-6	.	8	-0.9	-0.3
C=CCC(=O)N(CC)CC1CCCN(CCc2cccc(F)c2)C1 (configuration not stated) as listed: -1	4	0.5%	9	-2.1	-0.5
CCN(C(=O)COC(=O)/C=C/c1ccc(S(=O)(=O)N2CCc3ccccc32)cc1)C1CCS(=O)(=O)C1 (configuration not stated) as listed: 2	-11	-2.4%	1	1.8	0.0

The list goes on.
SMILES	TRPML1 inh	Six1-Eya2 blk	PINK1 expr mod	CtBP-E1A blk	D2 ag	TRPML1 ag
COC(=O)[C@]12CCCCC=C1N(Cc1ccccc1)C(=O)[C@H](CC(=O)N1CCCC1)C2	.	6	-0.8%	-1	.	-0.5
O=C(CSc1ncccc1-c1nc2ccccc2[nH]1)NCc1ccco1	-30	?	30%[38.3 µM]	-20	-3.0	1.6
Cc1cccc(NC(=O)CCS(=O)(=O)c2cccc3nsnc23)c1C	6&-6	0	3.6%&-0.8%	-1	-3.5	0.2&-0.6
CCN(CC)CCNC(=O)C1(O)c2cc(Br)ccc2NC(=O)N1c1ccc(Cl)cc1 (configuration not stated)	32	0	0.1%	.	0.1	1.5
C=CCOc1cccc(C2C(C(=O)c3ccco3)=C(O)C(=O)N2CCN2CCOCC2)c1 (configuration not stated)	19	-3	-0.9%	-1	-6.4	-0.3
Cc1cccc(-c2nc3c(c(SCC(=O)N4CCCC4)n2)COC(C)(C)C3)c1	10	5	0.7%	-3	-3.8	-0.4
COCCn1c(=O)c2c(nc3n2CCCN3CCc2ccccc2)n(C)c1=O	-9	-23	3.2%	-21	0.6	0.9
Cc1cc(=O)n2nc(N3CCCC(C(=O)NCc4ccc5c(c4)OCO5)C3)sc2n1 (configuration not stated)	-12	-4	-2.3%	-5	-1.2	0.6
COc1ccc(C(=O)Nc2ccc(N3CCN(C)CC3)cc2)cc1	19	29	-1.4%	.	0.2	0.3
O=S(=O)(NCCCc1ccccc1)c1cccc2nsnc12	-3	12	-0.2%	0	-4.1	1.6
CCOC(=O)C1CCCN(Cc2nc(N)nc(Nc3ccccc3)n2)C1 (configuration not stated)	2	-13	1.6%	-11	-3.3	-1.0
COCC(=O)n1nc(NCc2ccc(OC)cc2)nc1NCc1ccc(OC)cc1	-5	-7	-0.3%	-2	0.8	0.4
CC(C)(C)NS(=O)(=O)c1ccc(CCC(=O)N2CCOCC2)cc1	30	-1	-2.0%	4	-0.8	3.9
C[C@H](NC(=O)c1[nH]cnc1C(=O)N[C@@H](C)CO)c1ccccc1	-11	3	0.0%	0	1.4	1.2
CCCCN(C(=O)CCCc1nc2ccccc2c(=O)[nH]1)c1c(N)n(CC(C)C)c(=O)[nH]c1=O	2	-1	0.9%	.	-2.1	-0.5
CCC1Oc2ccccc2C(=O)N(CC(=O)c2ccc3c(c2)OCCO3)C1=O (configuration not stated)	6	4	0.3%	0	-4.8	0.8
CC(Nc1c[nH]c(=O)[nH]c1=O)c1ccccc1 (configuration not stated)	17	-4	0.3%	0	-0.4	-0.3
COc1cccc(NC(=O)c2nn(C)c3c2CS(=O)(=O)c2ccccc2-3)c1	18	4	5.7%	2	1.2	6.1
Cc1c(NS(=O)(=O)c2ccc(NC3CCCC3)c([N+](=O)[O-])c2)c(=O)n(-c2ccccc2)n1C	-4	0	-2.4%	-5	-2.3	1.5
CCOC(=O)c1nnn(-c2nonc2NC(C)=O)c1C	-6	14	0.7%	-1	-1.1	-0.4
